AID504770: growth inhibitors of E. coli YBA685 in a screen for V. cholerae RctB (chromosome II replication) inhibitors; E. coli YBA685 rctB-dependent plasmid, OD600 growth, 3 h; stronger effect = lower value; z-score (no concentration beside the values); actives 0.27% (n = 130,000); AID 504770;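 active means z-score under -2 on both plates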;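 further: wells of about 30 µL received 100 nL stock; score is relative to mean and SD of the test wells; the first replicate is given; strong numbers were not always called active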
CapD inh: inhibitors of Bacillus anthracis CapD enzyme | purified CapD enzyme, fluorescence intensity read-out; stronger effect = lower value; some hits fall short of the stated cut | z-score (no concentration beside the values) | actives 0.23% (n = 140,000) | AID 492967;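 active means z-score under -4 in either of two replicates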;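 further: stock transfer was 100 nL into about 40 µL; score is relative to mean and spread of the plate; one replicate is shown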
* hit, by the source's call; . = no result given; & = joins results of further samples.

Start of the data: the first 7 entries, ahead of the listing:
Structure,AID504770,CapD inh
CC(C)Sc1nnc2c3ccccc3n(C)c2n1,.,-0.145
CN=C(NC#N)NCCSCc1nc[nH]c1C,0.2,0.285
COCCn1c(-c2ccccc2)nc(=S)c2c1CC(C)(C)OC2,-0.25,-0.445
Cc1oc2ccc(OCC(=O)c3ccc(Br)cc3)cc2c1C(=O)OC(C)C,.,0.285
Cc1cccn2cc(CNC(=O)C3CCCCC3)nc12,-1.25,.
Cc1ccc(Cl)cc1NC1=NC(=S)N(C2CCCCC2)C12CCCCC2,.,-0.03
CCCC12CN3CC(C)(CN(C1)C(=O)c1ccccc1C3=O)C2=O,0.15,-0.39

The whole of this part, previewed entries included:
Structure,AID504770,CapD inh
CC(C)Sc1nnc2c3ccccc3n(C)c2n1,.,-0.145
CN=C(NC#N)NCCSCc1nc[nH]c1C,0.2,0.285
COCCn1c(-c2ccccc2)nc(=S)c2c1CC(C)(C)OC2,-0.25,-0.445
Cc1oc2ccc(OCC(=O)c3ccc(Br)cc3)cc2c1C(=O)OC(C)C,.,0.285
Cc1cccn2cc(CNC(=O)C3CCCCC3)nc12,-1.25,.
Cc1ccc(Cl)cc1NC1=NC(=S)N(C2CCCCC2)C12CCCCC2,.,-0.03
CCCC12CN3CC(C)(CN(C1)C(=O)c1ccccc1C3=O)C2=O,0.15,-0.39
Cc1cc(C(=O)OCC(=O)N(C)C2CCCCC2)c2ccccc2n1,-1.05,1.08

(listing goes on)
Structure,AID504770,CapD inh
CCN(CC)c1nc(C(=O)Nc2ccc(Br)cc2)cs1,0,.
NS(=O)(=O)c1cc(Cl)sc1Cl,.,-0.145
CN1CCCN(C(=O)c2cccnc2Cl)CC1,0.3,-0.015
COC(=O)c1ccc(-n2c(C)cc3ccccc32)s1,0.2,0.05
CC(=O)N(c1ccc(C)cc1)C1(C(=O)NC2CCCC2)CCCCC1,0.1,0.07
Cc1nc2cc(Cl)ccc2c(=O)n1CC1CCCO1 (centres undefined),0.3,0.96
Cc1ccc(NC(=O)C2C3CCCC2C3c2ccccc2)cc1C (centres undefined),.,-0.2
Cn1c(=O)c2c(nc3n(-c4ccc(C#N)cc4)c(-c4ccccc4)cn23)n(C)c1=O,.,-0.09

Next part.
Structure,AID504770,CapD inh
O=C(Cn1c2ccccc2c(=O)c2cc(Cl)ccc21)Nc1cc(Cl)cc(Cl)c1,.,3.62
Cc1ccc(-c2ccc(S(C)(=O)=O)cc2)n1-c1cccc(C(F)(F)F)c1,.,101
CC(=O)NC(=O)c1cc2ccc(OC(C)=O)cc2oc1=Nc1ccc(C(C)=O)cc1,.,0.435
CC1(C)CC(NC(=O)CC#N)CC(C)(C)N1,.,0.035
CN(Cc1ccccc1)CN1C(=O)NC(C)(c2ccccc2)C1=O (centres undefined),0.65,.
Cc1nnc(N/N=C/CCc2ccccc2)[nH]c1=O,-0.65,0.51
COc1ccc(C2CC(=O)C3=C(C2)Nc2ccccc2NC3c2ccc(F)c(Br)c2)cc1 (centres undefined),.,-0.65
Cc1ccc(S(=O)(=O)c2ccccc2)cc1S(=O)(=O)N1CCCCC1,-0.65,0.095

Continued:
Structure,AID504770,CapD inh
C/C(=N\O)C12CC3(C)CC(C)(CC(C)(C3)C1)C2,-0.2,0.325
Cc1nc(C(=O)Nc2ccc(F)c(F)c2)nn1-c1cccc(C(F)(F)F)c1,.,-0.365
Cc1ccc(C(=O)OCC(=O)c2ccc(S(=O)(=O)N3CCCCC3)cc2)o1,0.45,.
CC(C)(C)c1cc(C(C)(C)C)n(-c2ccc(N=Cc3ccccc3O)cc2)n1,0.75,0.265
C=CCn1c(-c2ccccc2)n[nH]c1=S,1.8&0,7.68
N#CCCN(CCc1ccccn1)S(=O)(=O)c1cc(Cl)sc1Cl,.,-0.25
Clc1ccc2c(c1)c(-c1ccccc1)nc1nnnn12,-0.95,0.415
CCCCN(c1nc2ccccc2[nH]c1=O)S(=O)(=O)c1ccc(C)cc1,-1,.

The list continues.
Structure,AID504770,CapD inh
CC(=O)NCCc1ccc(S(N)(=O)=O)cc1,-0.4,.
O=C(Cc1c[nH]c2ccccc12)N/N=C/c1csc([N+](=O)[O-])c1,.,-0.565
C/C(C=NN1CCN(Cc2ccccc2)CC1)=C\c1ccccc1,1.4,-0.34
COC(=O)c1ccc2c(=O)n(CCc3ccc(S(N)(=O)=O)cc3)c(SCc3ccc(Cl)cc3)nc2c1,.,1.69
c1ccc(C2=Nn3cc(-c4ccccc4)nc3SC2)cc1,0.15,.
CN1C(=O)c2cccc3c(S(=O)(=O)Nc4ccc(O)c(C(=O)O)c4)ccc1c23,0.6,-0.175
O=C1CC(c2c(F)cccc2Cl)c2ccc3ccccc3c2N1 (centres undefined),.,-0.105
CC(C)c1ccc(-c2noc(COC(=O)c3ccc(S(=O)(=O)NCCC#N)cc3)n2)cc1,-0.05,.

Next part
Structure,AID504770,CapD inh
COc1ccc(-c2nc(CSCC(=O)NC3CCN(Cc4ccccc4)CC3)c(C)o2)cc1OC,-0.6,1.08
S=C(Nc1ccc2c(c1)OCO2)Nc1cnccn1,0.05,1.27
COc1ccc(OC)c2c(C)cc(=O)[nH]c12,0.45,3.38
CCS(=O)(=O)N1CCC(C(=O)O)CC1,0.05,.
N#Cc1nc(-c2ccccc2OC(F)(F)F)oc1N,1.8,101
CC1CN(S(=O)(=O)c2cccc(-c3cn4cccnc4n3)c2)CC(C)O1 (centres undefined),1.95,50.2
N#CCCN(C(=S)Nc1cccc(C(F)(F)F)c1)C1CCCCC1,-0.2,-0.31
N#CCOC(=O)c1ccc(-c2cc(=O)c3ccccc3o2)cc1,-0.2,-0.785

The results go on:
Structure,AID504770,CapD inh
COc1ccc(C2C(C(=O)OCCOc3ccccc3)=C(C)NC3=C2C(=O)CC(C)(C)C3)cc1OC (centres undefined),.,5.83
O=C(c1ccccc1)c1c[nH]c2cc3c(cc2c1=O)OCO3,-0.75,-0.235
CSc1ccc(C2CC(=O)Nc3c2cc(Br)c2ccccc32)cc1 (centres undefined),.,3.22
Cc1cc(C)c(NC(=O)CN2C(=O)CCC2=O)c(C)c1,-0.3,.
CC(C(=O)Nc1cccc(N)c1)n1nnc2ccccc21 (centres undefined),-0.95,.
CC(=O)N1CCC(N(C(=O)C2CCN(c3ccc(C(F)(F)F)cn3)CC2)C2CC2)CC1,.,5.32
O=S(=O)(NCc1ccc(Cl)cc1)c1cnc[nH]1,-0.85,7.56
CCNc1cc(Nc2ccc(OC)cc2)c([N+](=O)[O-])c2nonc12,.,-0.405

More records:
Structure,AID504770,CapD inh
CS(=O)(=O)c1cc(C#N)c(N2CCN(C(=O)/C=C/c3ccccc3)CC2)nc1-c1ccc(Cl)cc1,.,-0.6
O=C(NCc1ccco1)c1c[nH]c2ccc(S(=O)(=O)N3CCN(c4ccc(F)cc4)CC3)cc2c1=O,.,-0.065
Cc1ccc(-n2nc(C)c3c2N2COCN(C3)c3c(c(C)nn3-c3ccc(C)cc3)C2)cc1,0.8,.
O=C(CN1C(=O)c2ccccc2C1=O)Nc1ccc(S(=O)(=O)N2CCCCC2)cc1,-0.3,-0.59
c1ccc(N=C(Nc2ccccc2)N2CCOCC2)cc1,-0.15,0.16
CCC(C)(C)c1ccc(S(=O)(=O)NCC23CC4CC(CC(C4)C2)C3)cc1,.,-1.04
O=c1cc(CN2CCCc3ccccc32)nc2sccn12,0.6,15
CCC(C)NC(=O)c1ccc2c(c1)[nH]c(=O)c(=O)n2CC (centres undefined),-0.85,.

(continued)
Structure,AID504770,CapD inh
COc1ccc2nc(SCC(=O)Nc3ccc(N4CCCC4)cc3)c(C#N)cc2c1,0.85,.
CCOC(=O)C1CSCCN1C(=O)COn1ccc2ccc(S(C)(=O)=O)cc21 (centres undefined),.,5.49
O=C1CCCC2=C1C(c1ccccc1)NC(=S)N2 (centres undefined),-0.1,0.37
CCOC(=O)CSc1nc(-c2ccc(OC)cc2)cc(C(F)(F)F)n1,-0.05,-0.52
CNC(=S)N/N=C(\C)c1ccccc1,.,-0.815
COc1ccc(-c2cc(C(=O)N(C)Cc3ccccc3)no2)cc1OC,0.2,-1.26
Clc1ncnc2sc3c(c12)CCC3,-0.45,0.19
Cc1ccc(CN(C)c2nc3ccccc3nc2NS(=O)(=O)c2ccc3c(c2)OCCO3)o1,0.95,.

Remaining list, next part:
Structure,AID504770,CapD inh
Cc1nnc(/N=C/NO)s1,.,-0.69
COc1ccc(CCCc2nc3ccccc3[nH]2)cc1,-0.85,0.63
N#CCc1ccc(NC(=O)COc2ccc3c(c2)CCC3)cc1,-0.4,-0.98
CC(O)CCC1CCCO1 (centres undefined),0.15,.
CC1(C)CC(=O)C2=C(C1)Nc1ccccc1N(C(=O)C(F)(F)F)C2c1ccc(Cl)cc1Cl (centres undefined),-0.4,0.125
CN(C)S(=O)(=O)Nc1ccc(N)cc1,0.4,0.495
O=c1nc2n(c3ncccc13)CCC2,-0.35,.
Cc1ccc(S(=O)(=O)Nc2ccc3oc(C)c(C(=O)O)c3c2)cc1,.,0.35

Other structures follow.
Structure,AID504770,CapD inh
O=C(c1ccc2c(=O)n(Cc3ccc4c(c3)OCO4)c(=S)[nH]c2c1)N1CCNCC1,-1.8,-0.755
CC1C(=O)OC2(C)CC(C)(C)NC(=S)N12 (centres undefined),-0.8,0.335
CC(=O)NCCOc1ccccc1Cl,-0.75,-0.43
NCCC12CC3CC(CC(C3)C1)C2,-0.4,0.625
CCSc1nnc(-c2cccc(S(=O)(=O)N3CCOCC3)c2)n1-c1ccc(F)cc1,0.3,.
COc1ccc(N2CCN(Cc3nnnn3CCc3ccccc3)CC2)cc1,-0.25,.
Cc1nc(-c2ccc(Cl)cc2)sc1C(=O)/C=C/c1ccc(Cl)cc1,.,0.215
O=C(NNc1cccc(Cl)c1)C(O)(c1ccc(Cl)cc1)c1ccc(Cl)cc1,.,0

The list continues:
Structure,AID504770,CapD inh
CN(C)/C=C(\C#N)C(=O)N(C)c1ccc(F)cc1F,0.9,0.085
COCCN(Cc1cc2c(C)cc(C)cc2nc1Cl)C(=O)c1ccco1,1.95,.
NC(=S)Nc1cc(Cl)cc(Cl)c1,.,0.21
COC(=O)c1sccc1NC(=S)N1CCCCC1,-0.1,-0.135
O=S(=O)(Cc1ccc(F)cc1)c1cn(Cc2ccccc2Cl)c2ccccc12,1,0.095
COC(=O)C(O)(c1c[nH]c2ccccc12)C(F)(F)F (centres undefined),-0.1,0.745
O=C(CSc1nc2c(c(=O)n1-c1ccccc1)SCC2)N1CCc2ccccc21,-0.25,0.545
N#Cc1ccc(C(=O)NCC2CCCCC2)cc1,2.9,.

The list continues.
Structure,AID504770,CapD inh
CCOC(=O)c1c(C)n(CC)c2ccc(OC(=O)c3ccco3)cc12,-1.2,-0.39
O=c1cc(O)nc(-c2ccc(Cl)cc2)s1,-0.65,-0.04
CCc1nc2ccccc2c(C(=O)OCC(=O)N(C)Cc2ccccc2)c1C,-0.9,-0.055
COc1ccc(OCc2cc3cccc4c3n(c2=O)CCC4)cc1,.,-0.21
CN(C)CC/C=C1/c2ccccc2CSc2ccccc21,.,1.53
COc1ccccc1NC(=O)C1CC=CCC1C(=O)O (centres undefined),-0.3,-0.095
CCOc1ccc(-c2cn3c(n2)sc2cc(C(=O)N(C)Cc4ccccc4)ccc23)cc1,0.05,0.825
CN(C)c1ccc(C=NCCCN2CCOCC2)cc1,1.45,-0.905

Additional entries follow.
Structure,AID504770,CapD inh
COC(CC(=O)O)c1nc2ccccc2s1 (centres undefined),-0.2,0.105
COc1cccc(N(CCCN2C(=O)c3cccc4cccc(c34)C2=O)C(=O)c2cccc([N+](=O)[O-])c2)c1,.,1.65
CN(Cc1ccccc1)C(=O)c1cc(=O)c2ccccc2o1,-0.55,-0.09
Cc1cc(C)nc(Nc2ncc(O)n2-c2cccc(Cl)c2)n1,.,-0.96
O=C(CSc1nnc(-c2ccccc2F)o1)Nc1ccc(S(=O)(=O)NC2=NCCCCC2)cc1,-0.3,.
O=C(Nc1ccsc1C(=O)NCc1ccc(Cl)cc1)c1ccccc1,.,0.03
Cc1c(C(=O)NC2CCOc3ccccc32)oc2ccccc12 (centres undefined),0.5,.
COc1ccccc1-n1cnc2cc(Nc3nnc(C)c4ccccc34)ccc21,.,-0.355

(cont.)
Structure,AID504770,CapD inh
COc1ccc(S(=O)(=O)N(C)C2CCN(Cc3cc4ccccc4o3)C2)cc1 (centres undefined),.,-0.145
CC(C)Oc1ccccc1Oc1ccc([N+](=O)[O-])cn1,.,-0.145
CCN(CC)CCCn1c(N)c(-c2nc3ccccc3[nH]2)c2nc(C#N)c(C#N)nc21,0.1,.
Cc1cnc(NC(=O)C2=C(O)c3ccccc3S(=O)(=O)N2C)s1,0.15,.
CS(=O)(=O)Nc1ccc(-c2nc3cccnc3s2)cc1,-1.15,0.875
O=C(O)CCS(=O)(=O)c1cccc2cccnc12,-0.55,0.38
CN(C(=O)COC(=O)c1ccc2c(=O)n3c(nc2c1)CCCCC3)C1(C#N)CCCCC1,-0.25,.
COc1ccccc1NC(=O)C1=C(C)NC(SCC(=O)Nc2ccc(Br)cc2)=C(C#N)C1c1ccccc1 (centres undefined),.,-0.34

New compounds follow
Structure,AID504770,CapD inh
CC(=O)OCCCCN1C(=O)c2ccccc2C1=O,.,-1.12
O=C(Nc1ccc(N2CCOCC2)cc1)C1CC(=O)N(Cc2ccccc2)C1 (centres undefined),1.3,.
COc1ccc(C(=O)Nc2ccc(O)c(-c3nc4ccccc4s3)c2)c(OC)c1,0.35,0.125
O=C(Nc1ccc(F)cc1)C1C2C3CCC(C3)C12 (centres undefined),-0.45,-0.17
CCN1CCN(c2nc3ccccc3n3c(C)nnc23)CC1,0.5,0.92

High-throughput results deposited in PubChem by ICCB-Longwood Screening Facility, Harvard Medical School.

Hits appear at their usual frequency, and some 0.37% of all compounds hit somewhere here.
